Source: PubChem
FGF22 binding = binders of recombinant human FGF22 by thermal shift; SYPRO orange fluorescence; percent of sucrose octasulfate shift, DMSO zero; AID 651658; hit rate 1.5% among 340,000; calls only at 9.99 µM;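 active = melting point raised past a set limit in the mean and every replicate; inconclusive = no clear call; three in four hits are not shown here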
Target sequence (Q9HCT0 whole entry, looked up): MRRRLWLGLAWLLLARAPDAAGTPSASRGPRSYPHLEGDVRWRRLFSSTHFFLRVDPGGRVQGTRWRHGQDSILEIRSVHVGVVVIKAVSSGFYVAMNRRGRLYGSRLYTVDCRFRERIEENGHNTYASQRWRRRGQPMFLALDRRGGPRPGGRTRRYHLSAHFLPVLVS
MLL AF4-AF9 inh = blocks AF4 peptide binding to human AF9; inhibition, % at 10 µM; AID 651704; AlphaScreen, biotin-AF4 peptide binding to FLAG-AF9; hit rate 0.47% among 350,000;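 active = every replicate reaching a set inhibition limit, whatever the replicate mean, cut at about 25% in these data; inconclusive = mean inhibition reaches that limit but some replicates miss it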;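 note: 0% = plate neutral control median and 100% = total signal loss; the record names both 10 and 1 µM as test concentration; the first replicate is given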
ALR inh = blocks human ALR sulfhydryl oxidase activity | P55789 | inhibition, % (concentration not given with the values) | purified ALR, DTT oxidation, H2O2 HRP-luminol luminescence | hit rate 3.8% among 290,000;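 active = mean and each replicate at 75% or more; inconclusive = only one of the two met; inactive = neither met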;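 note: stock transfer was 7.5 nL into about 7.5 µL; 0% = neutral wells and 100% = wells with inactivated enzyme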
Target sequence (P55789 whole entry, looked up): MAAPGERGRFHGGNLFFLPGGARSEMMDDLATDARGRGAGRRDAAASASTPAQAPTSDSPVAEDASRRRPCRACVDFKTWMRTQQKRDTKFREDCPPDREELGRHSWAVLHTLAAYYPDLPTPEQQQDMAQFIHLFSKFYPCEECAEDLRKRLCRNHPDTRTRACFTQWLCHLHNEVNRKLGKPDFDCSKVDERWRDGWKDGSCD
E coli growth = E. coli growth inhibition | hit rate 0.21% among 330,000 | OD600 absorbance (no concentration beside the values) | Escherichia coli growth, OD600, 23 h; stronger effect = lower value | AID 1053175;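 active = OD600 absorbance below the run mean of sample wells minus 3.6 SD, in any replicate, cut at about 0.56 in these data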;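 note: stock transfer was 300 nL into about 60 µL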
Ecoli rRNA inh = selective bacterial rRNA inhibition in E. coli | E. coli WT GFP vs humanized-ribosome RFP mutants, fluorescence, 24 h; stronger effect = lower value; DMSO median 0, no signal -100 | GFP signal change (wild-type ribosome), % (concentration not given with the values) | hit rate 1.6% among 350,000 | AID 720706;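 active = significant combined selectivity score with lowered wild-type GFP, culture density cut under 30%, mutant RFP and density less affected; inactive = any of these conditions unmet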; note: one replicate is shown; some compounds called inactive have numbers as strong as hits
Vif A3G = inhibitors of Vif binding to APOBEC3G peptide, primary screen, biochemical, TR-FRET, GST-Vif 1-94, biotin-A3G peptide, dose response retest (AID 1117319); TR-FRET GST-Vif / biotin-A3G peptide binding; higher % means a stronger effect; test concentration not given here; strong numbers were not always called active; inhibition, %, or IC50 in µM where a hit was titrated; hit rate 0.57% among 260,000;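 active = above the screen mean plus three standard deviations and confirmed in dose response; inconclusive = results disagree or hit not tested in dose response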;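 note: Vif residues 1-94 fused to GST binding biotinylated APOBEC3G peptide 110-148; 0% = full assay without inhibitor and 100% = GST in place of GST-Vif; retest series ran down from 100 µM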
HNF4A DNA FP = change in binding of human HNF4 alpha to DNA; activity change, % at 10 µM; P41235; hit rate 0.3% among 360,000; HNF4a-FITC DNA binding, fluorescence polarization, 1 h; in the data active = activity change above about 30%, passing the limit was not always enough;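 note: controls were the assay level and a saturating level of protein; the project sought stronger binding though the title names inhibitors; some compounds called inactive have numbers as strong as hits; positive values seem to mean higher polarization but the record does not say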
Target sequence (P41235 whole entry, looked up): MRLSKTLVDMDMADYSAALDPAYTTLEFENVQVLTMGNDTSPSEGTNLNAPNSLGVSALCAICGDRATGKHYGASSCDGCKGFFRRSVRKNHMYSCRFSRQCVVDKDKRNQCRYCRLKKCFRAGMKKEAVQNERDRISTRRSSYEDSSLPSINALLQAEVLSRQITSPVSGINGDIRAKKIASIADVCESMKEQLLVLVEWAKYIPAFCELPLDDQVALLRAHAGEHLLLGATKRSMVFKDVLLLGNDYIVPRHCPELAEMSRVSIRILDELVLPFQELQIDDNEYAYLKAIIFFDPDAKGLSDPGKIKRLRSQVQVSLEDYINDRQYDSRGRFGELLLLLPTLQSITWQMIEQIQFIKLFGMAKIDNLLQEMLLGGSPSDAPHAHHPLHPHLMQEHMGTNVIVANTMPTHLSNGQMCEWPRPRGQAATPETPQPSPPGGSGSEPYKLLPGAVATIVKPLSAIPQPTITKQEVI
Ecoli rRNA inh OD600 = further read-out of Ecoli rRNA inh, marked with its call; OD600 change, %; measured here: OD600 growth;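 optical density of the mix in the first replicate; 0 = DMSO median and -100 = no signal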
Ecoli rRNA inh RFP = recorded beside Ecoli rRNA inh, whose call it bears; RFP signal change, %; measured here: RFP humanized mutant strains;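 first replicate; 0 = DMSO median and -100 = no signal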
An asterisk follows results filed as active; i = inactive; ? = inconclusive; . = not tested or not shown; & = joins results of further samples. An excerpt; count on the stated rates, not on these rows.

SMILES	FGF22 binding	MLL AF4-AF9 inh	ALR inh	E coli growth	Ecoli rRNA inh	Ecoli rRNA inh OD600	Ecoli rRNA inh RFP	Vif A3G	HNF4A DNA FP
O=C(CNC(=O)CNC(=O)c1ccc(Cl)cc1Cl)NCc1cccc(Cl)c1	i	1.3	-2	0.68	0	0	3.2	2%	4.3
CCCN(CC(=O)Nc1ccccc1OC)C(=O)c1ccc(S(=O)(=O)Nc2ccccc2OC)cc1	i	-2.6	.	.	.	.	.	.	3.8
CCOc1ncccc1C(=O)Nc1ccc(S(=O)(=O)Nc2cc(C)nc(C)n2)cc1	i	-6.8	58	0.69	-10	-16	-3.2	.	-4.1
COc1ccc(/C=C/C(=O)OCc2csc(-c3ccccc3)n2)cc1OC	i	-6.0	-10	.	-15	-18	-0.5	0%	-3.7
COc1ccc2nc(-c3ccccc3)[nH]c2c1	.	.	-26	0.65	.	.	.	-2%	1.0
COc1ccccc1NC(=O)CSc1nc(O)c(Cc2ccccc2)c(=O)[nH]1	i	8.0	88*	0.72	6	-2	0.8	-2%	3.1
Cc1ccc(OCc2n[nH]c(=S)n2N)cc1C	i	-2.4	.	0.73	1	-6	0.8	-1%	4.7
CCc1ccc(CNC(=O)C2CCN(c3nnc(C)c4c(C)n(-c5ccc(C)cc5)nc34)CC2)cc1	.	.	-4	0.71	.	.	.	.	7.0
Cc1c(C(=O)N(Cc2ccc(N(C)C)cc2)C2CCS(=O)(=O)C2)oc2ccccc12 (configuration not stated)	i	61*	6	0.65	-10	-14	1.6	.	-1.8
COc1ccc(S(=O)(=O)N(C)C[C@H]2Oc3ccc(NC(=O)C4CCCCC4)cc3C(=O)N([C@@H](C)CO)C[C@@H]2C)cc1	i	-3.0	.	.	-3	-1	0.1	.	.
CC1=C(C)[N+](=O)C2CCCCC2N1[O-] (configuration not stated)	.	.	.	0.63	.	.	.	-4%	-0.5
COc1ccc(OC)c(NC(=O)N2CCCC(CNS(=O)(=O)c3cccs3)C2)c1 (configuration not stated)	i	3.1	-28	0.67	-11	-9	-2.8	-1%	3.1
Cc1ccc(/C=C2\SC(=S)N(CCCC(=O)Nc3nccs3)C2=O)cc1	i	-1.9	-14	.	.	.	.	.	-1.3
Cc1cccc(CN2C(=O)N/C(=C/c3ccc(C)s3)C2=O)c1	.	.	2	0.75	.	.	.	0%	35*
COc1ccccc1C1CCN(c2ccc([N+](=O)[O-])cn2)CC1	i	.	9	0.67	4	8	2.6	6%	-1.2
CCO[C@@H]1OC(C(=O)O)=C[C@H](c2ccc(C(F)(F)F)cc2)[C@H]1CCCO	i	-1.8	46	.	17	4	0.2	.	-1.2
Cc1cc(C)c(S(=O)(=O)c2ccccc2)c(N(C)C)n1	.	.	-7	0.69	-10	-9	-3.1	18%	-0.2
C[C@H](c1ccccc1)N1C[C@@H](COCc2ccccc2)Oc2cccc(F)c2S1(=O)=O	i	-8.5	.	.	4	5	3.3	.	.
Cc1ccc(S(=O)(=O)Cn2nnnc2C(c2ccc(F)cc2)N2CCC(C(N)=O)CC2)cc1 (configuration not stated)	.	.	-3	0.75	.	.	.	30%	-2.1
CCN(CC)S(=O)(=O)c1ccc(C(=O)Nc2nnc(-c3ccco3)o2)cc1	.	.	26	0.71	.	.	.	-1%	0.6
C#CC(CC)(CC)NC(=O)c1nn(-c2ccccc2Cl)c(C)cc1=O	i	-1.1	-6	0.66	-16	-19	0.9	.	-1.7
O=C(NCCC1=CCCCC1)C1CCN(S(=O)(=O)c2cccc3nonc23)CC1	.	.	-9	0.79	.	.	.	5%	.
FC(F)(F)c1cc(-c2cccs2)nc(-n2cc(Br)cn2)n1	.	.	-8	0.74	.	.	.	-13%	-1.3
COc1ccc(/C=N/NC(=O)c2ccncc2)c(OC)c1	i	-1.8	-11	.	20	22	2.3	-1%	2.0
O=C(/C=C/c1ccccc1)NCc1cccnc1	i	-2.1	-3	0.67	-5	-11	1.3	16%	0.2
SMILES	FGF22 binding	MLL AF4-AF9 inh	ALR inh	E coli growth	Ecoli rRNA inh	Ecoli rRNA inh OD600	Ecoli rRNA inh RFP	Vif A3G	HNF4A DNA FP
O=C(CSCc1c(F)cccc1Cl)NNC(=S)NC1CCCCC1	i	3.3	13	0.7	-12	-26	0.9	.	3.9
COc1cc(Br)c(C(C)NC(=O)c2ccc(C)cc2)cc1OC (configuration not stated)	.	.	0	0.67	.	.	.	9%	-0.2
Nc1ccc2oc(-c3cc(Br)ccc3Cl)nc2c1	i	-10	56	0.74	.	.	.	-3%	4.5
Cc1ccc(NC(=O)COC(=O)C2C3CC4OC(=O)C2C4C3)cc1 (configuration not stated)	i	2.0	-4	0.68	5	15	-0.6	.	-0.3
COc1ccc(NC(=S)NCCC(c2ccccc2)c2ccccc2)c(OC)c1	.	.	.	0.72	.	.	.	-7%	-1.3
O=C1CSC(=S)N1Nc1ccccc1	i	-0.5	.	0.66	-5	18	42	-1%	2.8
CC(C)(C)[C@H]1C=C(C(=O)Nc2ccccc2)O[C@@H](OCc2ccc(CO)cc2)C1	i	-3.0&-1.3	.	.	-8	-1	13	-7%	4.4
COc1ccc(NC(=S)N2CCN(C(=O)C3CCCO3)CC2)cc1 (configuration not stated)	i	-0.5	-9	0.68	3	4	-3.2	.	-2.6
COc1ccc(OCC(=O)Nc2ccccc2C(=O)NC2CC2)cc1	i	4.6	.	0.7	5	7	1.4	.	0.2
C=CCn1c(COc2cccc(C)c2)nnc1SC(C)C(=O)NC1CC1 (configuration not stated)	i	2.0	0	0.65	.	.	.	3%	2.9
CCN(C)C[C@@H]1Oc2cc(C#CCC3CCCC3)ccc2S(=O)(=O)N([C@@H](C)CO)C[C@H]1C	i	1.2	.	.	-2	-6	5.7	.	.
COc1ccc2c3c([nH]c2c1)[C@H](CO)N(C(=O)C1CCCC1)CC31CN(C(=O)c2ccncc2)C1	i	0.7	.	.	-2	3	-3.2	.	.
CCCCC(=O)c1c(C)cc(C)[nH]c1=O	.	.	-2	0.69	.	.	.	14%	4.7
COc1ccc(NC(=O)COC(=O)c2c(C)noc2C)cc1Cl	.	2.8	.	.	-2	1	1.0	-3%	2.7
COc1ccccc1N1CCN(C(=O)c2ccc(Br)o2)CC1	i	3.1	.	0.66	0	-26	-2.6	.	-2.9
C[C@@H]1CCCCO[C@H](CN(C)S(=O)(=O)c2ccc(Cl)cc2)[C@H](C)CN([C@@H](C)CO)C(=O)c2cc(NC(=O)Nc3ccccc3)ccc2O1	i	2.3	.	.	3	3	-1.9	.	.
CC(C)NC(=O)N(C)C[C@@H]1OCc2cnnn2CCCC(=O)N([C@H](C)CO)C[C@@H]1C	i	-1.7&-0.7	.	.	28&3	10&8	1.1&2.1	-4%	-8.3
Nc1[nH]c(=O)nc2snnc12	i	-0.7	.	.	1	2	4.6	-10%	1.6
Cc1c(-c2cccs2)[n+](=O)c2c(n1[O-])CCC2	.	.	-1	0.73	.	.	.	4%	2.6
CCOC(=O)C1=CCN(S(=O)(=O)c2ccc(C)cc2)C1c1cccc(F)c1 (configuration not stated)	i	-1.8	.	.	1	-27	-7.1	.	2.8
CC(C)C[C@H](NC(=O)c1nc[nH]c1C(=O)NC1CCN(C(=O)OC(C)(C)C)CC1)C(=O)OC(C)(C)C	i	7.1	.	.	5	-1	14	.	-2.1
O=C(O)CCC(=O)N1CCN(c2nc(-c3ccccc3Cl)c3cc(Br)ccc3n2)CC1	.	.	54	0.76	.	.	.	-16%	2.7
Cc1ccc(N2CC(C(=O)OCC(=O)Nc3cc(C)on3)CC2=O)c(C)c1 (configuration not stated)	i	-1.2	0	.	2	2	0.3	2%	-2.3
CCOC(=O)C1(C)CCN1C(=O)c1ccc(OC)c(F)c1 (configuration not stated)	i	-0.6	.	.	6	12	-0.2	.	-1.4
C[C@@H]1CN([C@@H](C)CO)C(=O)c2cc(NC(=O)CCCCCC(=O)Nc3ccccc3N)ccc2O[C@H]1CN(C)Cc1ccncc1	i	-3.5	.	.	4	6	2.4	.	.
SMILES	FGF22 binding	MLL AF4-AF9 inh	ALR inh	E coli growth	Ecoli rRNA inh	Ecoli rRNA inh OD600	Ecoli rRNA inh RFP	Vif A3G	HNF4A DNA FP
CN(CC(O)COc1c(F)cc(Br)cc1F)C1CCCCC1 (configuration not stated)	i	1.9	1	0.67	-7	-2	-2.3	.	-0.7
CC(=O)Nc1ccc(S(=O)(=O)NCCc2ccc3c(c2)OCCO3)cc1	i	-1.5	.	.	.	.	.	-4%	0.1
COCCCN(C(=O)CSCc1ccc(C)cc1)c1c(N)n(Cc2ccccc2)c(=O)[nH]c1=O	i	?	46	0.67	-1	7	-1.6	-3%	1.5
O=C(N/N=C/c1ccc(O)cc1)c1ccc(NC(=O)c2ccccc2Br)cc1	.	.	79*	.	.	.	.	1%	1.6
COCCOC(=O)c1[nH]c2c(c1C)C(=O)CC(c1ccc(N(C)C)cc1)C2 (configuration not stated)	.	.	-17	0.73	.	.	.	2%	-1.2
CO[C@@H]1CN(C)C(=O)c2cc(NC(=O)Nc3c(C)noc3C)ccc2OC[C@H](C)N(CCC(F)(F)F)C[C@@H]1C	i	2.4	.	.	-1	-1	0.4	.	.

14 structures already listed, ordered by molar mass, highest first.
SMILES	FGF22 binding	MLL AF4-AF9 inh	ALR inh	E coli growth	Ecoli rRNA inh	Ecoli rRNA inh OD600	Ecoli rRNA inh RFP	Vif A3G	HNF4A DNA FP
C[C@@H]1CCCCO[C@H](CN(C)S(=O)(=O)c2ccc(Cl)cc2)[C@H](C)CN([C@@H](C)CO)C(=O)c2cc(NC(=O)Nc3ccccc3)ccc2O1	i	2.3	.	.	3	3	-1.9	.	.
C[C@@H]1CN([C@@H](C)CO)C(=O)c2cc(NC(=O)CCCCCC(=O)Nc3ccccc3N)ccc2O[C@H]1CN(C)Cc1ccncc1	i	-3.5	.	.	4	6	2.4	.	.
CO[C@@H]1CN(C)C(=O)c2cc(NC(=O)Nc3c(C)noc3C)ccc2OC[C@H](C)N(CCC(F)(F)F)C[C@@H]1C	i	2.4	.	.	-1	-1	0.4	.	.
O=C(N/N=C/c1ccc(O)cc1)c1ccc(NC(=O)c2ccccc2Br)cc1	.	.	79*	.	.	.	.	1%	1.6
CC(C)NC(=O)N(C)C[C@@H]1OCc2cnnn2CCCC(=O)N([C@H](C)CO)C[C@@H]1C	i	-1.7&-0.7	.	.	28&3	10&8	1.1&2.1	-4%	-8.3
CCOC(=O)C1=CCN(S(=O)(=O)c2ccc(C)cc2)C1c1cccc(F)c1 (configuration not stated)	i	-1.8	.	.	1	-27	-7.1	.	2.8
CN(CC(O)COc1c(F)cc(Br)cc1F)C1CCCCC1 (configuration not stated)	i	1.9	1	0.67	-7	-2	-2.3	.	-0.7
CC(=O)Nc1ccc(S(=O)(=O)NCCc2ccc3c(c2)OCCO3)cc1	i	-1.5	.	.	.	.	.	-4%	0.1
Cc1ccc(N2CC(C(=O)OCC(=O)Nc3cc(C)on3)CC2=O)c(C)c1 (configuration not stated)	i	-1.2	0	.	2	2	0.3	2%	-2.3
COCCOC(=O)c1[nH]c2c(c1C)C(=O)CC(c1ccc(N(C)C)cc1)C2 (configuration not stated)	.	.	-17	0.73	.	.	.	2%	-1.2
COc1ccccc1N1CCN(C(=O)c2ccc(Br)o2)CC1	i	3.1	.	0.66	0	-26	-2.6	.	-2.9
CCOC(=O)C1(C)CCN1C(=O)c1ccc(OC)c(F)c1 (configuration not stated)	i	-0.6	.	.	6	12	-0.2	.	-1.4
Cc1c(-c2cccs2)[n+](=O)c2c(n1[O-])CCC2	.	.	-1	0.73	.	.	.	4%	2.6
Nc1[nH]c(=O)nc2snnc12	i	-0.7	.	.	1	2	4.6	-10%	1.6
